Screening results as filed in PubChem BioAssay.
VDR inhibitor = inhibitors of human vitamin D receptor. P11473. VDR-SRC2-3 peptide fluorescence polarization, 2 h. Potency, µM, for inactives: max response, negative = inhibition, actives largely listed as inhibitors. hit rate 0.93% among 400,000; active means well fitted inhibition curve with a large enough effect; inconclusive means small, poorly fitted or top-dose-only effect, or another doubt; inactive means no such curve, though single readings can be large or run the other way; further: series mostly up to about 120 µM
Target sequence (P11473 whole entry, looked up): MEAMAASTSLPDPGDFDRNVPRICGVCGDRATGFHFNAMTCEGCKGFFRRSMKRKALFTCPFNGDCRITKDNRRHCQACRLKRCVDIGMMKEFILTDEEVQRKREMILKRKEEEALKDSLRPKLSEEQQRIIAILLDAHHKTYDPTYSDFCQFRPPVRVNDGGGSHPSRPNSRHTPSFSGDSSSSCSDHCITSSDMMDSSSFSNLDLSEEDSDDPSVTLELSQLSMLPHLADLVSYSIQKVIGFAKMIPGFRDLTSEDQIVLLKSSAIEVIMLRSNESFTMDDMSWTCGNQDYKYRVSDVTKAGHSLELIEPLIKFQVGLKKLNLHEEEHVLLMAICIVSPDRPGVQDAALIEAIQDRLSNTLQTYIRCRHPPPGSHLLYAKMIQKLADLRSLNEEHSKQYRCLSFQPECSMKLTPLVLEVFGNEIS
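VDR–SRC2-3 interaction, FP format. Cmpds 23 nl via pintool, brief spin, 2 h ambient incubation.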
Numbers without * were called inactive; ? = inconclusive; & = joins results of further samples. On the % scale 0 is the no-effect control and ±100 the full control effect; potency means the concentration at half of the fitted maximal effect. A portion of the library, so the mix of outcomes need not match the whole.

SMILES | VDR inhibitor
COc1cccc(C2c3[nH]c4ccccc4c3C[C@H]3C(=O)N(CCCCCO)CC(=O)N23)c1 (some centres not stated) | 3%
CCOC(=O)c1c(C)n(CCNC(C)=O)c2ccc(O)cc12 | -6%
O=C1NC(=Nc2ccccc2)S/C1=C\C=C\c1ccco1 | ?
COc1ccc(CNC(=O)c2cnc3scc(C)n3c2=O)cc1 | 0%
O=C(CCc1n[nH]c(=O)[nH]c1=O)N1CCCCC1 | -16%
CCCC(=O)Nc1sc(C)c(C)c1C(=O)Nc1cccc(C)c1 | -1%
CCN1C(=O)/C(=c2\sc3nc(=O)c(Cc4ccccc4)nn3c2=O)c2ccccc21 | ?
Cc1ccc(N2C(=O)N(CC(=O)Nc3cc(F)ccc3C)C(=O)C2C)cc1 (configuration not stated) | 8%
COc1ccc(-n2nc(C(=O)NCC(=O)N3CCN(c4ccccc4OC)CC3)c3ccccc3c2=O)cc1OC | 11%
COC(=O)c1ccccc1NC(=O)c1ccc(CN2CC(=O)N3CCCCC3C2=O)cc1 (configuration not stated) | 10%
Cc1ccccc1NC(=O)NCCc1nc2ccccc2[nH]1 | 7%
COC(=O)c1sccc1NC(=O)c1cc(-c2ccc(C)cc2C)nc2ccccc12 | 13%
Cc1ccc(C2CC(c3cccs3)=NN2C(=O)CSc2nc3ccccc3o2)cc1 (configuration not stated) | -10%
CN1C(=O)C(C)(C)c2cc(S(=O)(=O)N3CCN(c4ccccc4)CC3)ccc21 | -25%
COc1ccc(C(C(=O)NC2CCCC2)N(C(=O)c2csnn2)C2CCCC2)cc1 (configuration not stated) | 15%
COc1ccc(CN(Cc2ccc(OC)cc2)C(=O)c2cccs2)cc1 | 0%
CCOc1cc(NC(=S)NC)c(OCC)cc1NC(=O)c1ccc(OC)cc1 | -3%
COc1ccc(NC2CC(=O)N(c3ccccc3)C2=O)cc1 (configuration not stated) | -12%
COc1c(C(=O)NC(=S)Nc2nnn(C)n2)cc2ccccc2c1Br | -6%
Cc1coc2cc3oc(=O)c(CC(=O)NCc4ccc(F)cc4)c(C)c3cc12 | 8%
Cc1cc(=O)oc(C)c1C(=O)NCCCN1CCN(c2ccccc2F)CC1 | 1%
CC1(c2ccccc2)NC(=O)N(CC(=O)Nc2ccccc2C(=O)NC2CC2)C1=O (configuration not stated) | -8%
OCC[C@@H]1C[C@@H](O)[C@H](O)[C@@]2(OCc3ccccc32)O1 | -14%
COc1ccc2c(CNCCc3cccs3)c(C(=O)O)n(Cc3ccccc3C)c2c1 | 8%
COc1cc2c3nnc(-c4ccccc4)c-3cn(Cc3ccccc3F)c2cc1OC | 11%
Remaining list, next part.
SMILES | VDR inhibitor
Oc1ccccc1NCC(O)Cn1ccc2ccccc21 (configuration not stated) | -5%
O=C(CNC(=O)c1ccco1)OCC(=O)c1ccc(Cl)cc1 | -3%
CCCc1nnc(NC(=O)CS(=O)(=O)c2ccccc2)s1 | -9%
Cc1noc(C)c1S(=O)(=O)N(C)C[C@H]1Oc2c(cccc2N(C)C)C(=O)N([C@H](C)CO)C[C@@H]1C | -4%
Cn1c(C(=O)NCc2cccnc2)cc2sc(Cl)cc21 | 3%
COc1ccccc1-c1c(C)nn2c(N3CCC4(CC3)OCCO4)cc(C)nc12 | 14%
Cc1ccccc1CN1C(=O)c2ccccc2S(=O)c2ccc(C(=O)NCCCN3CCOCC3)cc21 (configuration not stated) | 6%
CCOC(=O)CN1C(c2ccc(O)cc2)Nc2ccc(Br)cc2C1c1ccccc1 (configuration not stated) | -28%
CC(=O)c1ccc(N2C(=O)N(Cc3cccc(C(F)(F)F)c3)c3ccccc3S2(=O)=O)cc1 | 17%
Cc1cc(C)n(-c2nc3ccccc3nc2Nc2ccc(Cl)cc2Cl)n1 | -13%
NC(=O)Cn1c(=O)oc2ccccc21 | -5%
Cc1ccccc1NC(=O)C(Cc1ccccc1)n1cccc1 (configuration not stated) | 10%
Cc1occc1C(=O)NNC(=O)c1ccc(Br)o1 | 0%
C[N+]1(C)CC(O)[C@H](C(=O)[O-])C1 (some centres not stated) | -1%
O=C(CCCNS(=O)(=O)c1cccs1)N1CCN(c2cccc(Cl)c2)CC1 | 4%
N#Cc1ccc(NC(=S)NC(=O)CCc2ccc(S(=O)(=O)N3CCOCC3)cc2)cc1 | -11%
COc1cccc(Cn2nnc(C(=O)Nc3cc(C)ccc3C)c2N)c1 | 0%
NC(=O)c1cc(C(=O)c2cccc(Cl)c2Cl)c[nH]1 | 18%
COc1ccc(Nc2nccc(-c3cccc(N)c3)n2)cc1 | 5%
CCCC(=O)N(c1ccc2oc(=O)sc2c1)S(=O)(=O)c1cccs1 | ?
Cc1cccn2c(=O)c3cc(C(=O)N4COCC4(C)C)n(C)c3nc12 | 6%
O=C(NCCc1ccc(Cl)cc1)C1CCN(Cc2cc3ccccc3n2Cc2ccccc2)CC1 | -9%
COc1cccc(-c2onc3ccc(C(C)=O)cc23)c1 | -2%
COc1ccc(-c2csc3ncnc(N4CCN(S(=O)(=O)c5cccs5)CC4)c23)cc1 | 10%
NC(=O)c1oc2ccccc2c1NC(=O)CN1CCCCC1 | 10%

Reprinted at random: 7 compounds from above.
SMILES | VDR inhibitor
Cc1occc1C(=O)NNC(=O)c1ccc(Br)o1 | 0%
COc1ccc(Nc2nccc(-c3cccc(N)c3)n2)cc1 | 5%
CCCC(=O)N(c1ccc2oc(=O)sc2c1)S(=O)(=O)c1cccs1 | ?
NC(=O)c1oc2ccccc2c1NC(=O)CN1CCCCC1 | 10%
NC(=O)c1cc(C(=O)c2cccc(Cl)c2Cl)c[nH]1 | 18%
Cc1cc(C)n(-c2nc3ccccc3nc2Nc2ccc(Cl)cc2Cl)n1 | -13%
O=C(CNC(=O)c1ccco1)OCC(=O)c1ccc(Cl)cc1 | -3%

2 successive entries out of the list so far, for reference:
SMILES | VDR inhibitor
COc1ccc(-c2csc3ncnc(N4CCN(S(=O)(=O)c5cccs5)CC4)c23)cc1 | 10%
NC(=O)c1oc2ccccc2c1NC(=O)CN1CCCCC1 | 10%

Four of the compounds above, tab-delimited:
SMILES	VDR inhibitor
COc1ccc(Nc2nccc(-c3cccc(N)c3)n2)cc1	5%
COc1cccc(Cn2nnc(C(=O)Nc3cc(C)ccc3C)c2N)c1	0%
COc1ccc(-c2csc3ncnc(N4CCN(S(=O)(=O)c5cccs5)CC4)c23)cc1	10%
CCOC(=O)CN1C(c2ccc(O)cc2)Nc2ccc(Br)cc2C1c1ccccc1 (configuration not stated)	-28%

Later entries.
SMILES | VDR inhibitor
O=C(c1ccncc1)N(Cc1ccccc1)Cc1nc2ccccc2c(=O)[nH]1 | -4%
CC(C)C(=O)N1CC(=O)Nc2ccc(F)cc2C1c1ccc(F)cc1 (configuration not stated) | -16%
O=C(CCNC(=O)c1ccco1)Nc1ccc(C(F)(F)F)cc1 | 5%
CCCCCCC(=O)N1C/C=C\C(c2ccc(OC)cc2)N(Cc2ccc(F)cc2)C(=O)[C@H]1Cc1ccccc1 (some centres not stated) | -7%
C=CCOc1ccc(/C=C/C(=O)OCC(=O)N2CCCc3ccccc32)cc1 | -2%
COC(=O)Nc1nn(Cc2ccccc2F)cc1Br | 13%
NC(=O)C1CCN(C(=O)CCc2nc3ccccc3c(=O)[nH]2)CC1 | -1%
CS(=O)(=O)Nc1ccc2c(c1)OCC(=O)N2Cc1ccccc1 | -12%
Cc1c(NC(=O)NCCN2C(=O)C3C4C=CC(C4)C3C2=O)c(=O)n(-c2ccccc2)n1C (configuration not stated) | 5%
O=[N+]([O-])c1ccc(Nc2nc(NCCO)nc(N3CCCC3)n2)cc1 | -6%
COc1ccccc1-c1nc(CNC(=O)Nc2ccccc2)c(C)o1 | 13%
COC(=O)CC1SC(=O)NC1=Nc1ccccc1 (configuration not stated) | -8%
O=C(CCNC(=O)c1ccc(Br)o1)NCc1ccccn1 | -5%
O=C(CCC(=O)N1CCN(S(=O)(=O)c2ccc3ccccc3c2)CC1)NCC(F)(F)F | 8%
CC(C)OCc1cc(CN2CCN(c3cccc(C(F)(F)F)c3)CC2)c(O)c2ncccc12 | 9%
O=C(CSc1nc2ccccc2c(=O)n1CC1CCCO1)NCCc1ccccc1 (configuration not stated) | 6%
O=C(CNC(=O)c1ccc(Cl)cc1Cl)OCC(=O)N1CCCC1 | 19%
CCOC(=O)c1cnc2c(ccc3ccccc32)c1Nc1cccc(C(F)(F)F)c1 | -2%
CCOc1ccc(NC(=O)CN(C)C(=O)C2CSC3(C)CCC(=O)N23)cc1OCC (configuration not stated) | 19%
Cc1ncnc(N)c1CCCNc1ccccc1 | 6%
Cc1cc(C)c(NC(=O)CNC(=O)CSc2nnc(N)s2)c(C)c1 | -13%
COc1ccc2oc3cc(C)[n+]([O-])c(-c4ccc(Br)cc4)c3c2c1 | 3%
Cc1cc2cc(C)c(NCCNC(=O)c3cccc(F)c3)nc2cc1C | 13%
CC1(C)CC(=O)N(CC(=O)O)c2ccccc2S1(=O)=O | -8%
O=C(C[C@H]1C/C=C\C[C@H](Cc2ccc(F)cc2)C(=O)OCCNC1=O)NCCO | -12%
(cont.)
SMILES | VDR inhibitor
Cc1ccc2nc(SCC(=O)O)nc(C)c2c1 | 6%
CSc1oc(-c2ccco2)nc1S(=O)(=O)c1ccccc1 | -1%
CCN(CC(=O)Nc1ccc(NC(C)=O)cc1)C(=O)c1ccc(C(=O)c2ccccc2)cc1 | -1%
C#CCOCCOCCOCCNc1nc(N2CCN(C(=O)[C@H](CCCCN)n3cc(CCCC)nn3)CC2)nc(N2CCN(C(=O)[C@H](CCCCN)n3cc(CCC(=O)O)nn3)CC2)n1 | 5%
CNc1ccccc1C(=O)OCC(=O)N1CCN(c2ccc(OC)cc2)CC1 | -8%
CCc1ccc(NC(=O)Cn2c(=O)n(-c3ccccc3C)c(=O)c3c2c2cc(OC)ccc2n3C)cc1 | 5%
Cc1cc(C)n(-c2nc(NCCCN(C)C)c3c4c(sc3n2)CCCC4)n1 | 10%
COc1ccc(N/C=C\C(=O)c2ccc3c(c2)OCO3)cc1 | -6%
COc1ccc(/C(C)=N/Nc2nncc3ccccc23)cc1 | ?
Cc1cc2oc(=O)cc(-c3ccccc3)c2c(C)c1-c1ccoc1 | ?
O=C(O)C(Cc1cccs1)c1cccs1 (configuration not stated) | 2%
O=C(c1cc(-c2ccccc2)nc2ccccc12)N1CCOCC1 | 0%
O=C(Nc1ccccc1C(=O)NC1CCCC1)NC1CCCC1 | 0%
O=C(CNC(=S)N(Cc1ccccc1)Cc1cccnc1)NC1CC1 | -12%
Fc1cccc(Cl)c1/C=C/c1cnc2ccccc2n1 | -22%
COc1cc(/C=C(\C#N)c2nc3ccccc3[nH]2)cc(OC)c1O | -11%
CN(C)/C=N/c1nc2c(ncn2C2CC(O)C(CO)O2)c(=O)[nH]1 (configuration not stated) | 9%
CC(=O)N1c2ccc(S(=O)(=O)NCCC(=O)Nc3ccc(OC(F)(F)F)cc3)cc2CC1C (configuration not stated) | ?
COC(=O)c1ccccc1NC(=O)CCNC(=O)Cn1cnc2ccccc2c1=O | 4%
CC(=O)c1sc2nsc(SCCN3CCCCC3)c2c1N | -12%
CN(c1ccc(OCCOc2ccccc2Cl)cc1)S(=O)(=O)c1ccccc1 | -2%
CN(Cc1ccccc1)S(=O)(=O)c1ccc(-c2cnc(C3CC3)o2)cc1 | 17%
Clc1ccccc1N1CCN(c2ncnc3c2c(-c2ccccc2)cn3-c2ccccc2)CC1 | 10%
O=C(C[C@H]1C/C=C\CC[C@@H](Cc2ccc(F)cc2)C(=O)O[C@@H](c2ccccc2)CNC1=O)N[C@@H](CO)Cc1ccccc1 | 1%
COc1ccc2cc(C#N)c(Cl)nc2c1 | 8%
Later entries:
SMILES | VDR inhibitor
C/C(=N/OC(=O)C1CC12CCC2)c1ccc(Br)cc1 (configuration not stated) | -16%
Cc1nc(-n2nc(C)c(CCC(C)C)c2C)sc1C(=O)Nc1ccc(Br)cc1 | 2%
CC(NC(=O)c1cn(C(C)c2ccccc2F)nn1)c1ccncc1 (configuration not stated) | 7%
Cc1ccc(-n2nc3c(N4CCC(C(=O)N5CCC(C(N)=O)CC5)CC4)nnc(C)c3c2C)cc1 | -21%
COc1ccc(S(=O)(=O)Nc2ccc(O)c(Sc3ncn[nH]3)c2)cc1 | 9%
CCOc1cc(S(=O)(=O)Nc2cc(C)cc(C)c2)ccc1Cl | 4%
CCOC(=O)COc1ccc2nsnc2c1Cl | 24%
CCc1ccc(CN/C=C/C(=O)c2ccc(Br)cc2)cc1 | -12%
COC(=O)c1cc2c(C)nn(-c3ccccc3)c2s1 | 4%
Cc1ccc(CN(c2ccc(C(=O)Nc3cccnc3)cc2)S(C)(=O)=O)cc1 | 3%
COc1cc(CCC(=O)OCC(=O)Nc2cc(S(=O)(=O)N3CCOCC3)ccc2Cl)cc(OC)c1OC | -8%
CN(Cc1ccco1)c1ccnc(-c2ccccc2C(F)(F)F)n1 | 45µM*
Cc1ccc2nc(SCC(=O)Nc3ccc(F)c([N+](=O)[O-])c3)[nH]c2c1 | -16%
NNC(=O)c1ccc(COc2cccc3cccnc23)cc1 | 1%
O=C(O)c1cccc(Cn2cccn2)c1 | 8%
Cc1ccc(CSCCNC(=O)c2ccc(N(C)S(=O)(=O)c3ccccc3)cc2)cc1 | -10%
COc1cc(OC)cc(-c2c(C#Cc3ccsc3)c3cc(Br)ccc3n2C)c1 | 11%
Cc1cccc(N2CCN(S(=O)(=O)c3ccc4c(c3)CC(=O)N4C)CC2)c1C | -9%&-2%
COc1ccc(/C(O)=C/C(=O)C(=O)Nc2c(C)n(C)n(-c3ccccc3)c2=O)cc1 | 0%
Cc1cc(C)nc(SCC(=O)c2c(N)n(C)c(=O)n(C)c2=O)n1 | 0%
CCOc1ccc(C2c3cc(OC)c(OC)cc3CC(=O)N2c2ccccc2)cc1 (configuration not stated) | 2%
Nc1nc2ccc(O)cc2s1 | 1%
CCCCN(CCCNC(=O)c1cc(Nc2ccccc2OC)nc2ccccc12)c1ccccc1 | -6%
